Bioassay records as filed in PubChem BioAssay.
KCNQ2 enhance – enhances the rat KCNQ2 potassium channel. AID 2239. O88943. 310,000 tested, 0.54% active. CHO-K1 KCNQ2, FluxOR thallium flux fluorescence; hits give high values. B-score at 10 µM;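 active = fluorescence ratio B-score at least 3 SD of library B-scores, with initial fluorescence B-score within 3 SD, cut at about 5.3 in these data; same plate scores as AID 2156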;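 also: B-score of peak minus minimum over baseline fluorescence ratio after K+ and Tl+ stimulus; positive B-score means potentiation of KCNQ2 with more thallium influx and brighter signal; only the inactives scoring about 0 or higher are listed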
Target sequence (O88943 whole entry, looked up): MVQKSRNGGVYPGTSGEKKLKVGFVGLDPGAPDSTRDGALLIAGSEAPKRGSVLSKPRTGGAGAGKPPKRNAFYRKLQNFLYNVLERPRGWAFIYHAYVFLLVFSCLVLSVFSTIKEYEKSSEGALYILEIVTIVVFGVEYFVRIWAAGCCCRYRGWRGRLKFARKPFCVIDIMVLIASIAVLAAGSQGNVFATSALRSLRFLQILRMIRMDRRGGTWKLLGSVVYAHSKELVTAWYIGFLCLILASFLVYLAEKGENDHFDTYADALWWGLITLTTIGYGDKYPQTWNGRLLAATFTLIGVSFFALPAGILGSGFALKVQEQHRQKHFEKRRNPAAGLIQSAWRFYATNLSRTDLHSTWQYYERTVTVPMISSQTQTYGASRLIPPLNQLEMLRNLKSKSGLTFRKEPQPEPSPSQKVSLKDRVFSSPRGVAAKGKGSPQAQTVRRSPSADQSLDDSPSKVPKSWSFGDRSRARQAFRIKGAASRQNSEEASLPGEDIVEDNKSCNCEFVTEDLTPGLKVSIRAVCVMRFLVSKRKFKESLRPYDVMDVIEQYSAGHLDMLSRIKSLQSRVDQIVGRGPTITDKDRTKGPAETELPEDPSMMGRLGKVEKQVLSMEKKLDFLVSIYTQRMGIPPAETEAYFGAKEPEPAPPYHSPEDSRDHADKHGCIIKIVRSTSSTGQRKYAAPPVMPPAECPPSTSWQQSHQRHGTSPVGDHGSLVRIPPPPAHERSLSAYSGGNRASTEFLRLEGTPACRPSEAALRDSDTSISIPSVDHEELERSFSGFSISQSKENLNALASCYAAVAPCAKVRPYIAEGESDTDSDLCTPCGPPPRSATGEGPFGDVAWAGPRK
KCNQ2 enhance baseline – also measured in KCNQ2 enhance; calls as there; B-score; compound at 10 µM; measured here: initial fluorescence intensity artifact check;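 brightness before thallium and not channel activity; 0 = typical well and far values either way flag optical interference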
The depositor's hits bear a star. An excerpt; the hit share may differ from the screen's.

1: Cc1ccc(CCNC(=O)C2CCC(=O)N(Cc3ccccc3F)C2)o1 (stereo not given)
2: O=C(NCCCl)C1Cc2c(ccc3ccccc23)O1 (stereo not given)
3: Cc1nc(N2CCOCC2)nc(N2CCCCC2C)c1[N+](=O)[O-] (stereo not given)
4: CN1C(=O)C(O)(CC(=O)c2ccc3c(c2)OCO3)c2ccccc21 (stereo not given)
5: Cc1cc(C)cc(NC(=O)Nc2ccc3ccccc3n2)c1

Screen / compound no.,1,2,3,4,5
KCNQ2 enhance,0.3,0.37,0.06,1.39,0.04
KCNQ2 enhance baseline,1.83,-0.23,-0.25,-0.08,0.01

6: CCOC(=O)c1ccc(NC(=O)CC2NCCNC2=O)cc1 (stereo not given)
7: O=C(Nc1ccccc1)N1CCC(C(=O)N2CCN(c3ccccc3F)CC2)CC1
8: CC/C(=N\NC(=O)c1ccoc1C)c1ccc(C)o1
9: Cc1ccc(-n2c(=S)sc3c(=O)n(-c4ccccc4F)c(SCC(=O)O)nc32)cc1C
10: CSc1ccccc1C(=O)NCc1ccc(F)cc1

Screen / compound no.,6,7,8,9,10
KCNQ2 enhance,0.41,0.54,0.09,0.91,0.34
KCNQ2 enhance baseline,0.9,0.45,1.23,0.41,2.29

11: COC(=O)c1ccccc1NC(=O)CN1CCN(C23CC4CC(CC(C4)C2)C3)CC1
12: CCOC(=O)N1CCC2(CC1)NCCc1c2[nH]c2ccccc12
13: Cn1cc(C(=O)N/N=C/C2=C(N3CCOCC3)C(=C\c3ccccc3)/CC2)ccc1=O
14: CCn1c(COc2cccc(C)c2C)nnc1SCC(=O)Nc1cc(C)on1
15: O=C(Nc1ccc(Cl)c(Cl)c1)OCc1cncs1

Screen / compound no.,11,12,13,14,15
KCNQ2 enhance,0.22,0.58,0.99,0.56,0.19
KCNQ2 enhance baseline,-0.73,0.39,0.62,-1.92,0.99

16: CCN(CC)c1ccc(/C=N/Nc2nn[nH]n2)cc1
17: CCOC(=O)c1oc2c(C)c(O)ccc2c(=O)c1-c1nncn1-c1ccccc1
18: CCC(C)Sc1ccc([C@@H]2[C@@H]3C(=O)N(C)C(=O)[C@@H]3[C@]3(C(=O)OC)CCCCN23)cc1 (stereo not given in full)
19: COc1ccc(CCNC(=O)CSc2nnc(CNC(=O)c3ccco3)o2)cc1OC
20: CCC/C(=N\NC(=O)c1ccccc1C)c1ccccc1

Screen / compound no.,16,17,18,19,20
KCNQ2 enhance,0.03,0.11,1.09,0.18,0.16
KCNQ2 enhance baseline,1.01,2.51,3.12,1.35,-0.87

One compound at a time, from the list above. Screens in order: KCNQ2 enhance, KCNQ2 enhance baseline
COc1ccc(CCNC(=O)CSc2nnc(CNC(=O)c3ccco3)o2)cc1OC is listed as 0.18, 1.35
CCC/C(=N\NC(=O)c1ccccc1C)c1ccccc1 is listed as 0.16, -0.87
CCOC(=O)c1oc2c(C)c(O)ccc2c(=O)c1-c1nncn1-c1ccccc1 is listed as 0.11, 2.51
CCC(C)Sc1ccc([C@@H]2[C@@H]3C(=O)N(C)C(=O)[C@@H]3[C@]3(C(=O)OC)CCCCN23)cc1 (stereo not given in full) is listed as 1.09, 3.12

(list continues)
21: CCOc1ccccc1OCCC(=O)Nc1ccc(F)c(Cl)c1
22: CN(CC(=O)Nc1ccccc1Cl)C(=O)CCSc1ccc(F)cc1
23: COc1cc(N=Nc2ccccc2C(=O)O)ccc1O
24: COc1ccc(C(CC(=O)N2CCCC2)c2c(OC)cc(OC)c3ccc(=O)oc23)cc1 (stereo not given)
25: COc1ccc(CC(=O)OCC(=O)NCCNC(=O)COC(=O)Cc2ccc(OC)cc2)cc1

Screen / compound no.,21,22,23,24,25
KCNQ2 enhance,0.67,0.02,0.99,0.38,0.08
KCNQ2 enhance baseline,0.04,0,0.71,1.88,-0.78

26: Cc1[nH]n(-c2ccc(Cl)cc2)c(=O)c1C(=O)c1ccccc1
27: CN(CC(=O)Nc1ccc(F)cc1)C(=O)c1ccncc1
28: COc1cccc(S(=O)(=O)Nc2ccc3c(c2)OCCO3)c1
29: Cc1cccc(N2CCN(c3ccc4cc(S(=O)(=O)N5CCCCC5)ccc4n3)CC2)c1C
30: COc1ccc(NC(=O)c2ccccc2SC)cc1OC

Screen / compound no.,26,27,28,29,30
KCNQ2 enhance,3.25,1.43,0.08,0.52,0.75
KCNQ2 enhance baseline,0.86,-1.27,-0.78,-0.36,0.1

31: O=C(NCCCc1ccccc1)c1ccc([N+](=O)[O-])cc1Cl
32: O=C(NC1CCCCCC1)C1C2C=CC3(CN(Cc4cccnc4)C(=O)C13)O2 (stereo not given)
33: O=C(NC(=S)N(Cc1ccccc1)Cc1ccccc1)c1ccccc1F
34: O=C(NCCCN1CCOCC1)c1cc2ccccc2oc1=O
35: COc1ccc2c(c1)CCc1cn[nH]c1-2

Screen / compound no.,31,32,33,34,35
KCNQ2 enhance,1.88,0.72,11.4*,1.22,0.93
KCNQ2 enhance baseline,-0.25,0.13,-1.15*,-0.68,-0.35

Among those listed so far, 3 have a furan ring, fused or not:
1: Cc1ccc(CCNC(=O)C2CCC(=O)N(Cc3ccccc3F)C2)o1 (stereo not given)
8: CC/C(=N\NC(=O)c1ccoc1C)c1ccc(C)o1
19: COc1ccc(CCNC(=O)CSc2nnc(CNC(=O)c3ccco3)o2)cc1OC

Screen / compound no.,1,8,19
KCNQ2 enhance,0.3,0.09,0.18
KCNQ2 enhance baseline,1.83,1.23,1.35

The listing continues.
36: Cc1ccnc(NC(=O)c2ccoc2C)c1
37: CC(OC(=O)c1ccc(NS(=O)(=O)c2ccc3[nH]c(=O)[nH]c3c2)cc1)C(N)=O (stereo not given)
38: COc1ccc(CCNC(=O)[C@H](C)NC(=O)N2CCn3c2nc2ccccc23)cc1OC
39: CCNC(=S)NNC(=O)CCn1cc(C)cn1
40: CCn1c(=O)c2ccccc2n(Cc2ccccc2C)c1=O

Screen / compound no.,36,37,38,39,40
KCNQ2 enhance,0.23,0.71,0.32,0.48,0.28
KCNQ2 enhance baseline,0.19,0.14,-0.11,1.13,-1.22

41: COC(=O)c1ccccc1NC(=O)C1CCCO1 (stereo not given)
42: CC(=O)c1c(C)nc(-c2cccc([N+](=O)[O-])c2)n1O
43: O=C(COC(=O)c1cccnc1Cl)c1ccc(OC(F)F)cc1
44: COc1cccc(C(=O)NCC(=O)N2CCC(C)CC2)c1
45: Cc1ccc(C(=O)N/N=C\c2ccccn2)cn1

Screen / compound no.,41,42,43,44,45
KCNQ2 enhance,0.98,0.06,0.15,0.67,0.11
KCNQ2 enhance baseline,-0.99,1.33,-0.56,-0.77,-0.83

46: CS(=O)(=O)N1CCc2cc(C(=O)NC3CC3)ccc21
47: CC(C)c1onc(C(=O)NCc2ccc(Cl)cc2)c1[N+](=O)[O-]
48: CSCCC(NC(=O)c1ccccc1)C(=O)NC1CC1 (stereo not given)
49: COc1ccc(OC)c(NC(=S)N2CCc3ccccc3C2)c1
50: NC(=O)C1(N2CCCCC2)CCN(C(=O)NC23CC4CC(CC(C4)C2)C3)CC1
51: Nc1nnn(CC(=O)N/N=C/c2cccc3ccccc23)n1
52: O=C(C1CCC(=O)N(C2CC2)C1)N1CCN(c2ccc(Cl)cc2)CC1 (stereo not given)
53: Cn1c(N)c(C(=O)COC(=O)CC2CC3CCC2C3)c(=O)n(C)c1=O (stereo not given)

Screen / compound no.,46,47,48,49,50,51,52,53
KCNQ2 enhance,0.1,0.05,1.76,0.59,0.31,0.07,0.35,1.82
KCNQ2 enhance baseline,-0.77,-0.04,-0.79,0.28,-1.79,-0.49,-0.02,1.56
